# High-throughput results deposited in PubChem BioAssay by PCMD.
# CatL inh: inhibitors of human cathepsin L; P07711; purified cathepsin L, fluorogenic substrate, fluorescence; inhibition, %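 (tested at 10 µM)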; 0.17% of 58,000 active; in the data active means inhibition above about 45%;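 further: 0% = enzyme with no compound and 100% = no enzyme blank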
# FXIIa mix inh: inhibitors of human coagulation factor XIIa, pooled mixtures; purified FXIIa, fluorogenic substrate; inhibition, % at 5 µM; 0.2% of 62,000 active;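 further: 0% = enzyme without compound and 100% = no enzyme blank; some results filed as inactive read as strong as hits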
# FXIa inh mix: inhibitors of human coagulation factor XIa, pooled mixtures. P03951. purified FXIa, fluorogenic substrate. inhibition, % at 5 µM. 0.19% of 62,000 active. AID 680;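 further: each value is inhibition by a whole ten-compound pool holding the compound; 0% = enzyme with no mixture and 100% = wells lacking enzyme; strong numbers were not always called active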
# Target sequence (P03951 19-387 limits assumed): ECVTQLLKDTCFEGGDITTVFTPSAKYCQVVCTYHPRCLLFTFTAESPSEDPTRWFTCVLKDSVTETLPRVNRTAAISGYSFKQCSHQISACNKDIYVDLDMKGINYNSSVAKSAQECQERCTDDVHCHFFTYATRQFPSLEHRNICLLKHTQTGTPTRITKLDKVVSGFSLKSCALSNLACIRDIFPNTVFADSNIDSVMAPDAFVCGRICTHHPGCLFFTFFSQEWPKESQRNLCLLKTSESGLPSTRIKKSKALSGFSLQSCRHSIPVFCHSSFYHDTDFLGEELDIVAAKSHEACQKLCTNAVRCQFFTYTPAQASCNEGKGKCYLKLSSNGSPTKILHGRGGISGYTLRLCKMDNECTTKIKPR
# Target sequence (P03951 388-625 limits assumed): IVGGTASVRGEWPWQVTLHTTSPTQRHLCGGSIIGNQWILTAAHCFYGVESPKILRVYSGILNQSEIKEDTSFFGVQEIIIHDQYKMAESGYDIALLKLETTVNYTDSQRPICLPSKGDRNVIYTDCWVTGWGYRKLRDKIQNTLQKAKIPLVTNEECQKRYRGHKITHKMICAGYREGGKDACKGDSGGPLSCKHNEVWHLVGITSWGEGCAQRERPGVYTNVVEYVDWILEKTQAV
# CatS inh: human cathepsin S inhibition. P25774. recombinant cathepsin S, AMC dipeptide fluorescence, pooled mixtures. inhibition, %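 (tested at 5 µM per compound within 10-compound mixtures)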. 0.06% of 62,000 active; in the data active means inhibition above about 32%, passing the limit was not always enough;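 further: 0% = enzyme without compound and 100% = blank without enzyme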
# Target sequence (P25774 115-331 limits assumed): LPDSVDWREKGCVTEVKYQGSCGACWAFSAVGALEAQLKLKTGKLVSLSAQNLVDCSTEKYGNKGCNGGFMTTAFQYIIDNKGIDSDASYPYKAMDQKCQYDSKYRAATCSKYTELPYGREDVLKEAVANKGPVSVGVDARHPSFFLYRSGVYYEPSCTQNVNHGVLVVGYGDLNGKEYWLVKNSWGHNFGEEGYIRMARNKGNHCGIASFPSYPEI
# C1s inh: blocks human complement C1s protease activity; purified C1s, fluorogenic AMC substrate, pooled mixtures; mean inhibition % of two 10-compound mixtures (stronger effect = higher value), % at 5 µM (by protocol); 0.16% of 62,000 active; AID 538;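 active means inhibition above 20% in each of the two 10-compound mixture wells holding the compound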;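 further: 0% = enzyme wells lacking compound mixture and 100% = no-enzyme blank wells; some compounds called inactive have numbers as strong as hits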
# CatG inh: inhibitors of human cathepsin G | P08311 | 0.2% of 62,000 active | purified enzyme, AMC-tetrapeptide fluorescence, pooled mixtures | AID 581 | inhibition, % at 5 µM (by protocol);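 active means inhibition above 20% in each of the two mixture wells holding the compound; inactive means inhibition of 20% or less in either well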;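 further: 0% = enzyme control without mixture and 100% = blank lacking enzyme; strong numbers were not always called active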
# * marks the source's active call; other numbers are inactive results; . = no result given. Unless noted, no stated cut-off is given here; in the data, active means inhibition above about 20% (passing the limit was not always enough); inactive means the rest. An excerpt (hit frequency here may not be typical).
No.	mol	C1s inh	FXIa inh mix	FXIIa mix inh	CatL inh	CatG inh	CatS inh
1	COc1ccc(N2C(N)=NC(N)=NC23CCCC3)cc1	1	-7	4	25	10	1
2	COc1ccc(C2NC(=O)NC(C)=C2C(=O)Nc2cccc(C)c2C)cc1 (centres undefined)	-3	10	5	.	-1	-1
3	O=C(OCC(=O)N(C1CCCCC1)C1CCCCC1)c1ccncc1	-16	0	5	4	-3	-7
4	COc1cccc(C2NC(=O)NC(C)=C2C(=O)Nc2ccc(C)cc2)c1 (centres undefined)	0	3	-15	.	7	0
5	Oc1ccccc1C(=S)N1CCCCCC1	-85	-7	5	14	-11	-10
6	O=C1C2CCCN2C(c2cccs2)N1c1ccc(Cl)cc1 (centres undefined)	-25	9	-2	8	13	5
7	COc1ccc(CC(=O)c2cc(OC)c(OC)cc2CC(=O)O)cc1OC	2	1	3	6	-3	-3
8	COc1cc2c(cc1OC)CN(C(=O)CC1CC3CCC1C3)CC2 (centres undefined)	-3	9	-2	-13	0	20
9	O=C(NCCCn1ccnc1)c1cc2c(s1)CCCCC2	10	4	0	29	5	14
10	COc1ccccc1NC(=O)C1CCCCN1S(=O)(=O)c1ccc(F)cc1 (centres undefined)	-3	4	9	2	8	6
11	CC(C)(C)n1nnnc1C(c1ccc2ncccc2c1)N1CCSCC1 (centres undefined)	-14	-8	1	32	-7	0
12	CSc1ccc(S(=O)(=O)Nc2ccc3c(c2)OCCO3)cc1	16	5	12	6	8	-1
13	O=C(Nc1nccs1)C1CCCN1S(=O)(=O)c1ccc(F)cc1 (centres undefined)	-9	10	8	.	-6	1
14	O=C(Nc1ccc(O)cc1)C1CCCN1S(=O)(=O)c1ccc(F)cc1 (centres undefined)	2	7	1	19	-5	-3
15	O=C(Nc1cccc(-c2nc3ccccc3[nH]2)c1)c1ccco1	2	1	-9	16	0	3
16	CCCNc1nc2c(c(=O)n(C)c(=O)n2C)n1CCc1ccccc1	15	4	1	13	12	4
17	CSc1n[nH]c(NCc2ccccc2)n1	18	5	5	-5	5	-1
18	Cc1nn(C)cc1NC(=O)CCSc1nc(-c2ccco2)cc(C(F)(F)F)n1	-5	5	3	6	-5	4
19	Cc1ccc(-c2nn(-c3ccccc3)c3[nH]c(=O)c(CNCCN(C)C)cc23)cc1	3	1	3	-5	10	3
20	COc1nc(Nc2ccc3c(c2)OCO3)nc(OC)n1	12	8	4	3	6	-7
21	O=C(CSc1ncnc2sc3c(c12)CCCC3)N1CCC(c2noc3ccc(F)cc23)CC1	9	5	2	13	8	7
22	O=C(CSc1ncn(-c2ccccc2)n1)c1cccs1	-24	4	7	11	1	-7
23	COc1ccc(S(=O)(=O)NC(C)C(=O)Nc2cccc(C(C)=O)c2)cc1 (centres undefined)	13	3	10	1	9	-8
24	COc1cccc(OC)c1OCCOCCn1cnc2ccccc2c1=O	1	7	0	4	-2	-4
25	CCCOc1cccc(C2/C(=C(/O)c3ccc(F)cc3)C(=O)C(=O)N2CCN(C)C)c1 (centres undefined)	.	.	.	-8	.	.

# Another view of part of the listing above:
1) COc1ccc(N2C(N)=NC(N)=NC23CCCC3)cc1
2) COc1ccc(C2NC(=O)NC(C)=C2C(=O)Nc2cccc(C)c2C)cc1 (centres undefined)
3) O=C(OCC(=O)N(C1CCCCC1)C1CCCCC1)c1ccncc1
4) COc1cccc(C2NC(=O)NC(C)=C2C(=O)Nc2ccc(C)cc2)c1 (centres undefined)
5) Oc1ccccc1C(=S)N1CCCCCC1
6) O=C1C2CCCN2C(c2cccs2)N1c1ccc(Cl)cc1 (centres undefined)
7) COc1ccc(CC(=O)c2cc(OC)c(OC)cc2CC(=O)O)cc1OC
entry no.	1	2	3	4	5	6	7
C1s inh	1	-3	-16	0	-85	-25	2
FXIa inh mix	-7	10	0	3	-7	9	1
FXIIa mix inh	4	5	5	-15	5	-2	3
CatL inh	25	.	4	.	14	8	6
CatG inh	10	-1	-3	7	-11	13	-3
CatS inh	1	-1	-7	0	-10	5	-3

8) COc1cc2c(cc1OC)CN(C(=O)CC1CC3CCC1C3)CC2 (centres undefined)
9) O=C(NCCCn1ccnc1)c1cc2c(s1)CCCCC2
10) COc1ccccc1NC(=O)C1CCCCN1S(=O)(=O)c1ccc(F)cc1 (centres undefined)
11) CC(C)(C)n1nnnc1C(c1ccc2ncccc2c1)N1CCSCC1 (centres undefined)
12) CSc1ccc(S(=O)(=O)Nc2ccc3c(c2)OCCO3)cc1
13) O=C(Nc1nccs1)C1CCCN1S(=O)(=O)c1ccc(F)cc1 (centres undefined)
14) O=C(Nc1ccc(O)cc1)C1CCCN1S(=O)(=O)c1ccc(F)cc1 (centres undefined)
entry no.	8	9	10	11	12	13	14
C1s inh	-3	10	-3	-14	16	-9	2
FXIa inh mix	9	4	4	-8	5	10	7
FXIIa mix inh	-2	0	9	1	12	8	1
CatL inh	-13	29	2	32	6	.	19
CatG inh	0	5	8	-7	8	-6	-5
CatS inh	20	14	6	0	-1	1	-3

15) O=C(Nc1cccc(-c2nc3ccccc3[nH]2)c1)c1ccco1
16) CCCNc1nc2c(c(=O)n(C)c(=O)n2C)n1CCc1ccccc1
17) CSc1n[nH]c(NCc2ccccc2)n1
18) Cc1nn(C)cc1NC(=O)CCSc1nc(-c2ccco2)cc(C(F)(F)F)n1
19) Cc1ccc(-c2nn(-c3ccccc3)c3[nH]c(=O)c(CNCCN(C)C)cc23)cc1
20) COc1nc(Nc2ccc3c(c2)OCO3)nc(OC)n1
21) O=C(CSc1ncnc2sc3c(c12)CCCC3)N1CCC(c2noc3ccc(F)cc23)CC1
entry no.	15	16	17	18	19	20	21
C1s inh	2	15	18	-5	3	12	9
FXIa inh mix	1	4	5	5	1	8	5
FXIIa mix inh	-9	1	5	3	3	4	2
CatL inh	16	13	-5	6	-5	3	13
CatG inh	0	12	5	-5	10	6	8
CatS inh	3	4	-1	4	3	-7	7

22) O=C(CSc1ncn(-c2ccccc2)n1)c1cccs1
entry no.	22
C1s inh	-24
FXIa inh mix	4
FXIIa mix inh	7
CatL inh	11
CatG inh	1
CatS inh	-7

# An excerpt from above in order of the CatS inh value, ascending:
No.	mol	C1s inh	FXIa inh mix	FXIIa mix inh	CatL inh	CatG inh	CatS inh
20	COc1nc(Nc2ccc3c(c2)OCO3)nc(OC)n1	12	8	4	3	6	-7
4	COc1cccc(C2NC(=O)NC(C)=C2C(=O)Nc2ccc(C)cc2)c1 (centres undefined)	0	3	-15	.	7	0
9	O=C(NCCCn1ccnc1)c1cc2c(s1)CCCCC2	10	4	0	29	5	14

# The results go on.
No.	mol	C1s inh	FXIa inh mix	FXIIa mix inh	CatL inh	CatG inh	CatS inh
26	COC(=O)c1ccc(C(=O)OC)c(NC(=O)CSc2nc(-c3ccco3)cc(C(F)(F)F)n2)c1	5	12	4	3	-3	-8
27	O=C(CC1Oc2ccccc2NC1=O)NCCc1ccccc1 (centres undefined)	-27	-5	-9	.	6	-4
28	CCOC(=O)c1c(NS(C)(=O)=O)sc2c1CCC(C)C2 (centres undefined)	-10	0	7	6	2	10
29	CC(=O)NC(Cc1ccc(C)cc1)C(=O)NC1CCN(C(=O)c2cnccn2)CC1 (centres undefined)	6	9	1	-5	2	-6
30	Cc1cccc(N2CC3=C(C2=O)C(c2ccccc2)NC(=O)N3C)c1 (centres undefined)	-15	7	6	2	8	-7
31	COc1ccc(OC)c(C2NC(=O)NC(C)=C2C(=O)Nc2ccc(C)cc2)c1 (centres undefined)	5	7	2	0	2	-1
32	CCOC(=O)C1CCN(C(=O)Nc2ccc3nc(C)c(C)nc3c2)CC1	-21	-6	0	-169	5	5
33	CCC(C)c1ccc(NC(=O)C2CCCN(c3ncccn3)C2)cc1 (centres undefined)	-7	-1	-3	20	2	-1
34	Cn1c(=O)[nH]c(=O)c2c1nc(NC1CCCCC1)n2CCO	6	11	-2	-9	6	-6
35	CCCCc1nc2ccccc2n2cc3c(=O)n(C)c(=O)n(C)c3c12	10	2	1	11	14	2
36	Cc1nc2ncnn2c(C)c1CCC(=O)NCCCN1CCN(c2cccc(Cl)c2)CC1	-37	-9	1	9	3	8
37	CSC1=C(C#N)C(C)C2=C(CC(C)(C)CC2=O)N1 (centres undefined)	0	7	10	-7	3	2
38	CCN(C(=O)COc1cc(=O)n(CC)c2ccccc12)c1cc(Cl)ccc1OC	-2	0	-2	.	-2	-2
39	Cc1nnc2sc(-c3ccccn3)nn12	-10	-1	1	21	-3	14
40	CN(C)CCCNc1cc(Cl)c(S(=O)(=O)N2CCCCC2)cc1C(=O)O	-5	5	-17	11	-3	18
41	O=S(=O)(NCc1ccco1)c1cccc2cccnc12	12	1	2	6	12	0
42	CC(C)CCn1c(=O)c2ccccc2n2c(CN3C(=O)NC4(CCC(C)CC4)C3=O)nnc12 (centres undefined)	3	5	-1	0	-5	3
43	COCCCNc1nc2c(c(=O)n(C)c(=O)n2C)n1Cc1cccc(OC)c1	.	.	.	-3	.	.
44	CC1(C)CC(=O)C(C=NCCN2CCN(C(=O)c3ccccc3)CC2)=C(O)C1	-5	5	-22	2	3	1
45	Cc1ccc(-c2nnn(CC(=O)N(CC(=O)NCc3ccccc3)c3cccc(C)c3C)n2)o1	0	21	3	3	44	12
46	CCc1nc(NCC2CCCN2CC)c2nnn(Cc3ccccc3F)c2n1 (centres undefined)	3	3	2	20	-1	1
47	Cc1ccc2[nH]c(=O)c(-c3noc(-c4ccncc4)n3)cc2c1	8	5	1	-7	11	7
48	COCCCNC(=O)C1CCCCN1S(=O)(=O)c1ccc(F)cc1 (centres undefined)	14	5	-17	-3	9	-1
49	CCOc1ccc(S(=O)(=O)NCCC(=O)OCN2C(=O)c3ccccc3C2=O)cc1	11	6	0	-5	10	-4
50	CCCCC(C(=O)NCCC(C)C)N(CCCN1CCOCC1)C(=O)c1snc(C(N)=O)c1N (centres undefined)	16	3	-12	0	10	2
51	CCOC(=O)N1CCC(NC(=O)C2CCCN(c3nc4ccccc4o3)C2)CC1 (centres undefined)	12	0	-5	3	11	1
52	CCCCN1CCCCC1C(=O)Nc1c(C)cc(C)cc1C (centres undefined)	7	0	15	3	8	0
53	CC(=O)Nc1ccc(-c2nn3c(C)nnc3s2)cc1C	-6	24	-11	24	54	8
